Source: PubChem BioAssay
D2 potentiator: Beta-Arrestin HTS for Positive Allosteric Modulators of the Human D2 Dopamine Receptor: Potentiators | D(2) dopamine receptor (Homo sapiens), P14416 | DiscoveRx D2 beta-arrestin cells, luminescence, 90 min; 100% = 57 uM dopamine signal | potentiation, % (concentration not given with the values) | actives 0.23% (n = 360,000); active = potentiation of 50% or more; inconclusive = 30% to 50%; inactive = 30% or less;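 also: compound concentration not given in the record; tested on top of an EC20 dose of dopamine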
Target sequence (P14416 whole entry, looked up): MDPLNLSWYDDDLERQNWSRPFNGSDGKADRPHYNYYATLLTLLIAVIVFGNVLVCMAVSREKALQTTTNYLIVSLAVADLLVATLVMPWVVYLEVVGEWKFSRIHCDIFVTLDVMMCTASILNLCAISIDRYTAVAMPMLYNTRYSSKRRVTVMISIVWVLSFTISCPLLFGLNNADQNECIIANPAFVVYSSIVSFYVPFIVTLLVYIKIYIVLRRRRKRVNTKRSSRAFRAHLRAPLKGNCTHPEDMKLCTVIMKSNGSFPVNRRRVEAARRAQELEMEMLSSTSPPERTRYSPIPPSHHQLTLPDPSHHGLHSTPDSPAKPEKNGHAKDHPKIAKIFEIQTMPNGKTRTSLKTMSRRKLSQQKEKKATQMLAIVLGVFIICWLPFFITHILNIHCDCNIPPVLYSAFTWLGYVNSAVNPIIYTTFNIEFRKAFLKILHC
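D2 cells co-treated with compound plus 50 nM dopamine (EC20) for 90 min at 37 deg C to detect potentiation. Beta-arrestin recruitment was read as enzyme-fragment luminescence after 1 h at ambient temperature. Full response was set by 57 uM dopamine.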
gsp antag: qHTS for Antagonists of gsp, the Etiologic Mutation Responsible for Fibrous Dysplasia/McCune-Albright Syndrome: qHTS; Potency, µM (doses to about 76.9 µM), inactives show at the highest dose activity change, negative = inhibition, hits mostly inhibitors; actives 0.4% (n = 340,000); gsp-mutant cells, cAMP HTRF, 30 min; control for the full effect not named in the record; AID 624288, 2012; active = falling curve of any shape with a large fitted effect; inconclusive = falling curve, mostly with a smaller effect; inactive = flat or rising curve; cell line not stated here;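 also: intracellular cAMP measured with PDE inhibitor Ro 20-1724 present during compound exposure; potency is read from the fitted curve at half-maximal effect; % is scaled to controls: 0 for no effect and ±100 for the full control effect; nearly all actives have a fitted effect of over 65% in size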
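HTRF cAMP read-out (cAMP-d2 plus anti-cAMP antibody-K in lysis buffer, 30 min RT). Before lysis, cells are exposed to compounds with […] for 30 min at 37C in DPBS containing Ca/Mg, BSA and Tween 20.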
D2 agonist: Beta-Arrestin HTS for Positive Allosteric Modulators of the Human D2 Dopamine Receptor: Agonists; D(2) dopamine receptor (Homo sapiens), P14416; DiscoveRx PathHunter D2 beta-arrestin, luminescence, 90 min; 100% = 57 uM dopamine signal; activation, % (concentration not given with the values); actives 0.084% (n = 360,000); AID 624465, 2012; in the data active = activation above about 40%; inconclusive = about 15% to 40%; inactive = below about 15%; also: compound concentration not given in the record; the text of the record calls up to 30% inactive
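DiscoveRx PathHunter D2 beta-arrestin cells (2,100/well) attached overnight, then compound-stimulated 90 min at 37 C in HBSS/10 mM HEPES/0.1% Tween-20 buffer; beta-galactosidase complementation read by luminescence after 1 h at ambient temperature. Dopamine 57 uM final (EC100) as control.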
gsp agonist: qHTS for Agonist of gsp, the Etiologic Mutation Responsible for Fibrous Dysplasia/McCune-Albright Syndrome: qHTS; actives 0.13% (n = 340,000); Potency, µM (series often up to 76.9 µM), without a hit: at the highest dose activation (cAMP increase), most hits filed as activators; gsp mutant cells, cAMP HTRF, 30 min; control for the full effect not named in the record; active = well fitted activation curve with a large enough effect; inconclusive = small, poorly fitted or top-dose-only effect, or another doubt; inactive = no such curve, though single readings can be large or run the other way; cell line not stated here;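 also: phosphodiesterase inhibitor Ro 20-1724 added with compounds to block cAMP breakdown; potency is read from the fitted curve at half-maximal effect; nearly all actives have a fitted effect of over 60% in size; about a fifth of the inactives were tested at one dose only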
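Cells in DMEM/10% FBS with G418 were pretreated with compounds in DMSO plus […] (300 uM stock) for 30 min at 37C. cAMP was measured by HTRF (cAMP-d2 plus anti-cAMP antibody-K) after 30 min at room temperature.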
CtBP-E1A inh: qHTS Assay for Inhibitors of the CtBP/E1A Interaction; CtBP / adenovirus E1A interaction (AlphaScreen); AlphaScreen GST-E1A/His-CtBP binding, 1536-well; active compounds read low; control for the full effect not named in the record; activity change, % (concentration not given with the values); actives 0.49% (n = 340,000); AID 651724, 2012; in the data active means activity change below about -65%; inconclusive means about -30% to -65%; inactive means above about -30%; also: % is scaled to controls: 0 for no effect and ±100 for the full control effect
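GST-E1A and His-tagged CtBP (125 nM each as 5X stock) were preincubated with pin-transferred compound for 2 h at 37 °C in the dark, then glutathione donor and nickel acceptor beads were added for 1 h before AlphaScreen reading.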
Six1-Eya2 inh: qHTS Assay for Inhibitors of the Six1/Eya2 Interaction; actives 0.56% (n = 360,000); Homeobox protein SIX1 (Homo sapiens) + Protein phosphatase EYA2 (Homo sapiens), …; activity change, % (test concentration not listed); AlphaScreen GST-Six1/His-Eya2 binding, biochemical; active compounds read low; control for the full effect not named in the record; in the data active = activity change below about -65%; inconclusive = about -30% to -65%; inactive = above about -30%; also: % is scaled to controls: 0 for no effect and ±100 for the full control effect
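Compounds are tested against tagged Six1 and Eya2 proteins bridged by glutathione donor and nickel acceptor beads; after a one-hour incubation at 37 °C without light, AlphaScreen emission is recorded.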
* = called active by the depositor; ? = inconclusive; . = no result given; [ ] = dose if it differs, or a comment. This is a random part of the collection, and some 1.4% of all compounds hit somewhere here.

Structure,Six1-Eya2 inh,D2 potentiator,D2 agonist,CtBP-E1A inh,gsp agonist,gsp antag
c1ccc(SCc2cn(C[C@H]3CC[C@@H]([C@@H]4CC[C@H](Cn5cc(CSc6ccccc6)nn5)O4)O3)nn2)cc1,3.0,-6.6,0.7,-0.2,19.3%,?
O=C(Nc1cc(S(=O)(=O)N2CCOCC2)ccc1N1CCOCC1)c1ccccc1Cl,-2.8,-26.1,-4.8,-4.3,9.0%[15.4 µM],-3.7%
COC(=O)Cn1c2c(c3cc(C)ccc31)CCCC2,0.0,-4.4,-4.7,-2.8,?,8.7%
Cc1cc(=O)oc2cc(OCC(=O)Nc3ccc(N4CCC(C)CC4)cc3)ccc12,-3.4,0.0,5.3,-4.8,29.1%,13.2%
CCOc1ccc(/C=N/NC(=O)COc2ccccc2-c2ccccc2)cc1,-1.4,11.5,-0.9,-6.9,-13.1%,-0.4%
O=C(CN1CCN(Cc2ccccc2Cl)CC1)N/N=C/c1ccco1,-1.8,-9.3,1.4,3.4,-1.7%[15.4 µM],-15.5%
COc1ccc(NC(=O)n2ncc3cc(Cl)ccc32)cc1OC,-3.2,-9.2,-0.2,2.5,2.7%,7.6%
O=C(CSCc1ccc(Cl)cc1)Nc1ccc(-c2nnc(-c3ccccc3)o2)cc1,-11.6,20.3,-1.9,7.8,-4.0%,13.6%
CCN(CC)S(=O)(=O)c1ccc2[nH]c(=O)c3ccccc3c2c1,-1.4,-5.3,-5.8,3.1,9.0%,16.8%
Cc1ccc(-n2c(N)c(C(N)=O)sc2=S)c(C)c1,-14.0,-9.8,-3.0,-23.0,-39.0%,4.2%
O=C(NCCCN1CCOCC1)c1ccc2c(=O)n(CCc3ccccc3)c(=O)[nH]c2c1,4.5,-12.4,-3.6,0.5,-6.6%,3.5%
O=C(NC1CCCC1)c1ccc(Br)o1,-1.5,-11.1,-4.0,-0.7,22.4%,3.6%
Cn1c(N)c(C(=O)COC(=O)c2ccc3ccccc3c2)c(=O)n(C)c1=O,-0.6,6.4,-2.2,4.2,15.0%[15.4 µM],-11.5%
Cc1ccc(S(=O)(=O)NCC(c2ccccc2)N2CCN(c3ccc(F)cc3)CC2)cc1 (centres undefined),-16.0,-14.1,-2.6,.,10.3%,-1.7%
OC(COc1ccc(Cl)cc1)CN1CCCCC1 (centres undefined),2.0,-14.3,-0.1,2.3,18.0%,-2.0%
COCC1CCCC1OS(N)(=O)=O (centres undefined),10.9,-2.5,-6.8,-10.7,3.9%,10.1%
O=C(COC(=O)/C=C/c1c(F)cccc1Cl)NCC1CCCO1 (centres undefined),2.2,-11.7,-3.3,-17.5,4.5%,0.1%
O=C(CN1C(=O)NC2(CCCC2)C1=O)Nc1cc(Cl)ccc1N1CCOCC1,1.5,20.1,-2.9,3.5,-68.7%[inhibitor],-5.3%
CC(=O)c1c(C)[nH]c(C(=O)CSc2ccc(F)cc2)c1C,4.5,-3.8,2.0,0.0,-16.0%[15.4 µM],-20.7%
O=C(NCCN=C1NS(=O)(=O)c2ccccc21)c1ccncc1,1.5,1.9,-3.1,4.8,-45.6%[inhibitor],14.8%

(listing goes on)
Structure,Six1-Eya2 inh,D2 potentiator,D2 agonist,CtBP-E1A inh,gsp agonist,gsp antag
CC(C)(C)c1ccc(Cn2c(=N)n(CC(O)c3ccco3)c3ccccc32)cc1 (centres undefined),-16.7,-8.2,-3.2,-25.4,-1.8%[15.4 µM],.
CN1CCN(S(=O)(=O)c2ccc(NC(=O)c3ccc(F)cc3Cl)cc2)CC1,13.0,-6.3,2.2,-10.3,-23.8%[15.4 µM],-9.4%
O=C(Nc1ccccc1C(=O)NCCCN1CCOCC1)c1ccc(F)cc1F,1.2,-5.4,-0.9,-6.7,0.5%,6.8%
COc1ccc(C)cc1NC(=O)Nc1ccccc1SC,22.4,-12.7,-5.8,-6.6,-12.9%[15.4 µM],-10.9%
CC1CCN(CCCOc2ccc(Br)cc2Cl)CC1,-5.0,-3.3,0.2,16.1,14.5%[15.4 µM],6.9%
COc1ccccc1/C=C1/C(=O)N(c2ccccc2)N=C1C,0.8,-1.5,-2.6,2.1,-8.8%[15.4 µM],-3.3%
Cc1ccc(NC(=O)c2ccc(CSc3nnc(C)s3)cc2)c(C)c1,7.9,14.2,1.0,6.9,-29.5%,-13.8%
Cc1cnc(NC(=O)c2cc3c(s2)CCCC3)s1,-6.0,-6.9,-2.4,-4.3,2.0%,-13.7%
CC(=O)c1cccc(NC(=O)c2cc(-c3ccc(C)cc3)on2)c1,6.8,-1.2,0.2,7.1,-17.5%,6.2%
COc1ccc(S(=O)(=O)Nc2ccc3c(c2)C(=O)N([C@H](C)CO)C[C@H](C)[C@@H](CN(C)S(=O)(=O)c2c(C)noc2C)O3)cc1,5.2,-2.4,-3.5,0.3,.,5.0%
O=C(/C=C/c1ccccc1[N+](=O)[O-])N1CCN(c2ccccc2F)CC1,-0.1,-2.0,-2.5,-2.2,-27.5%,-5.9%
CC(=O)c1cc(F)c(N2CCN(C(=O)c3ccco3)CC2)cc1C,-1.9,10.6,2.6,5.7,?,-17.7%
COc1ccc(-n2c(=S)[nH]c3ccccc32)cc1,-0.5,?,2.0,-3.8,-33.8%[inhibitor],-9.0%
Cc1ccc(Nc2nc(Cl)nc(N(C)C#N)n2)cc1,?,-28.8,-3.9,-22.7,16.5%,5.3%
CC(=O)N1C(C)(C)CC(=NOC(=O)c2ccccc2)CC1(C)C,-0.4,-1.2,10.4,.,3.9%,6.9%
O=C(Nc1ccc(N2CCCC2)cc1)c1cc2ccccc2o1,-4.9,1.1,4.2,.,?,-3.3%
O=C(CN(C(=O)CCC(=O)Nc1ccccn1)c1cccc(F)c1)NCc1ccc2c(c1)OCO2,-4.7,-3.6,-4.5,-7.9,-8.1%[15.4 µM],6.9%
N#Cc1c(Cl)cccc1Oc1ccc(S(=O)(=O)Nc2ccccc2)cc1,-0.9,-4.4,1.1,-0.7,22.6%[15.4 µM],3.6%
Cc1ccc(C(=O)OCC(=O)Nc2sccc2C(N)=O)cc1NC(=O)c1ccco1,-3.5,-2.3,-0.3,-4.9,-18.3%,-13.9%
O=C(CN1C(=O)/C(=C/c2ccc(F)cc2)SC1=S)NC1CCS(=O)(=O)C1 (centres undefined),-1.5,-3.4,1.9,-2.1,?,-3.6%

Next section.
Structure,Six1-Eya2 inh,D2 potentiator,D2 agonist,CtBP-E1A inh,gsp agonist,gsp antag
CC(C)(C)Nc1nc2cc([N+](=O)[O-])ccc2o1,3.4,-0.9,-1.5,.,6.6%,5.7%
CC(C)CCNC(=O)CCCOc1cc(=O)n(C)c2ccccc12,1.7,-7.1,-1.9,6.2,-73.2%[inhibitor],-7.6%
COc1ccccc1NC(=O)COc1cccnc1[N+](=O)[O-],-14.0,1.4,0.8,.,1.2%,-14.0%
O=C(N1CCN(c2ccccc2)CC1)C1(c2cccs2)CCOCC1,-2.4,-2.4,1.0,0.3,-2.3%[15.4 µM],3.5%
Cc1cccc(C(=O)N2CCN(c3ccc(N4CCOCC4)nn3)CC2)c1,-6.3,-1.7,-3.8,1.9,16.2%,-7.4%
CC(C)(C)c1ccc(S(=O)(=O)N2CCN(Cc3cc4c(cc3O)OCO4)CC2)cc1,?,-7.1,-0.8,0.6,-4.3%,-3.4%
O=C(N/N=C/c1ccc(OC(F)F)cc1)c1ccc(Br)cc1,5.9,-30.8,0.3,14.1,-7.0%,-0.7%
O=C(O)CCC(=O)N(Cc1ccccc1)Cc1ccccc1,-26.6,-1.8,-5.6,15.9,-10.2%,-25.6%
CCOc1ccc(NC(=O)CC2SC(=O)N(c3ccccc3)C2=O)cc1 (centres undefined),-5.3,-7.4,-10.9,5.5,-18.8%[15.4 µM],-22.0%
CCOC(=O)c1cc2occc2n1CC(=O)N1CCCc2ccccc21,-6.9,0.1,-1.6,-14.6,-19.2%,?
CCc1ccc2c(c1)c1nc(C)sc1n2CC(=O)OC,-2.4,-2.1,-3.2,3.4,-6.0%,-5.9%
Cn1cc(CN2CCCC(C(=O)c3cc(F)ccc3F)C2)c2ccccc21 (centres undefined),-22.4,-10.7,-6.2,-16.4,-21.6%,10.7%
Cn1cc(CN2CCc3sccc3C2)c(-c2ccccc2F)n1,4.4,-12.5,-0.5,.,1.7%,6.8%
Cc1noc(NS(=O)(=O)c2ccc(NC(=O)Nc3ccc(Cl)c(Cl)c3)cc2)c1C,-12.6,16.9,-3.2,-2.3,?,-16.4%
COCCNC(=O)C1(C)CCCN(C(=O)c2cccc(C#N)c2)C1 (centres undefined),1.9,-3.3,-0.5,3.4,.,.
O=C(OC1CCOC1=O)c1cc(-c2ccc(Br)cc2)nc2ccccc12 (centres undefined),-1.3,-11.2,-0.4,-6.0,-1.4%,-5.6%
O=C(OCc1cn([C@@H]2C[C@H](c3ccc(Cl)cc3)N(C(=O)c3cccs3)C[C@H]2O)nn1)c1ccccc1,-4.8,-3.5,-2.7,1.3,-160.3%[inhibitor],.
Cc1c(C)n(Cc2ccccc2)c2ccc(C(=O)OCCCN(C)C)cc12,?,-17.1,-1.2,?,-0.9%[15.4 µM],17.5%
CC(C)(Oc1ccc(Cl)cc1)C(=O)O/N=C(\N)c1ccncc1,2.9,-2.4,6.0,-18.1,-23.7%,-6.5%
O=C(Cn1nc(-c2ccccc2Cl)ccc1=O)Nc1ccc(Br)cc1,2.6,-1.0,-2.5,3.0,2.2%[15.4 µM],11.6%

(listing goes on)
Structure,Six1-Eya2 inh,D2 potentiator,D2 agonist,CtBP-E1A inh,gsp agonist,gsp antag
COc1cc(/C=C/C(=O)N2CCCc3ccccc32)cc(OC)c1OC,4.4,-6.8,2.2,3.1,17.4%,26.3%
COc1ccc(NC(=O)CNC(=O)Cc2cccc3ccccc23)c(OC)c1,-14.5,-8.0,1.9,-5.9,1.1%[15.4 µM],-1.0%
O=C(Cc1ccccc1)c1ccc(Cl)cc1,37.3,-3.8,-1.3,1.7,1.9%[15.4 µM],10.1%
CCC(=O)N1CCc2cc(S(=O)(=O)CCC(=O)Nc3ccc(OC)cc3)ccc21,-0.2,-5.3,-3.3,.,-0.1%,1.7%
